Menin MLL FP FL: qHTS Assay for Inhibitors Targeting the Menin-MLL Interaction in MLL Related Leukemias: Competition With Fluorescein Labeled MLL-derived Peptide | Fluorescence polarization, fluorescein-MLL peptide displacement from menin | FP activity change, % at 61.4 µM | 290,000 tested, under 10 active; inconclusive = falling polarisation curve, or a change in total fluorescence; inactive = total fluorescence flat and polarisation flat or rising; no compound was filed as active; the % refers to the polarisation; negative = inhibition;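 also: % of control where 0% means no effect; inhibitors lower the polarisation; unlabelled MLL peptide was the positive control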
ClpP mod: qHTS Assay for Activators of ClpP. 1.9% of 340,000 active. Potency, µM (highest dose often 57.5 µM), inactives show at the highest dose activity change, negative = active. AID 651965, 2013. ATP-dependent Clp protease proteolytic subunit (Bacillus subtilis (strain 168)), P80244. purified B. subtilis ClpP, FRET peptide cleavage, 20 min; active = well fitted falling curve with a large enough effect; inconclusive = small, poorly fitted or top-dose-only effect; inactive = no such curve, though single readings can be large or run the other way; also: potency is read from the fitted curve at half-maximal effect; the source files actives as falling curves though it sought activators and does not explain the sign; nearly all actives have a fitted effect of over 65% in size; many hits overshoot -100%
Target sequence (P80244 whole entry, looked up): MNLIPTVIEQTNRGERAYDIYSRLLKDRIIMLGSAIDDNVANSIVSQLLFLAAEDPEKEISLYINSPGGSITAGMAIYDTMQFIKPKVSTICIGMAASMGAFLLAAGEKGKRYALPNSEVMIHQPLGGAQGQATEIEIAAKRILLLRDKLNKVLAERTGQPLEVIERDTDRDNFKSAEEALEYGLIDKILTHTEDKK
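ClpP 10 microg/mL final, pH 8 Tris/KCl buffer with BSA, glycerol, Tween-20; compound pinned in; FRET-FV substrate; RT 20 min; Ex320/Em430; ΔFRET vs ADEP 5.8 microM, DMSO, no enzyme.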
gsp antagonist: qHTS for Antagonists of gsp, the Etiologic Mutation Responsible for Fibrous Dysplasia/McCune-Albright Syndrome: qHTS; gsp-mutant cells, cAMP HTRF, 30 min; control for the full effect not named in the record; Potency, µM (titrated, usually from 76.9 µM), for the others: at the top dose activity change, negative = inhibition, hits mostly inhibitors; 0.4% of 340,000 active; active = falling curve of any shape with a large fitted effect; inconclusive = falling curve, mostly with a smaller effect; inactive = flat or rising curve; cell line not stated here;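 also: intracellular cAMP measured with PDE inhibitor Ro 20-1724 present during compound exposure; potency is read from the fitted curve at half-maximal effect; % is scaled to controls: 0 for no effect and ±100 for the full control effect; nearly all actives have a fitted effect of over 65% in size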
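Cells in G418 medium, seeded 16-24 h, 37C; buffer exchange to DPBS + 1 mM CaCl2, 0.5 mM MgCl2, 0.05% BSA; cpds in DMSO + […] (300 uM stock), 30 min 37C; HTRF cAMP detection.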
D2 potentiator: Beta-Arrestin HTS for Positive Allosteric Modulators of the Human D2 Dopamine Receptor: Potentiators | 0.23% of 360,000 active | DiscoveRx D2 beta-arrestin cells, luminescence, 90 min; 100% = 57 uM dopamine signal | potentiation, % (test concentration not listed); active = potentiation of 50% or more; inconclusive = 30% to 50%; inactive = 30% or less;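 also: compound concentration not given in the record; tested on top of an EC20 dose of dopamine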
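D2 cells co-treated with compound plus 50 nM dopamine (EC20) for 90 min at 37 deg C to detect potentiation. Beta-arrestin recruitment was read as enzyme-fragment luminescence after 1 h at ambient temperature. Full response was set by 57 uM dopamine.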
gsp agonist: qHTS for Agonist of gsp, the Etiologic Mutation Responsible for Fibrous Dysplasia/McCune-Albright Syndrome: qHTS; AID 624287, 2012; gsp mutant cells, cAMP HTRF, 30 min; control for the full effect not named in the record; 0.13% of 340,000 active; Potency, µM (highest dose often 76.9 µM), inactives show top-dose activation (cAMP increase), most hits filed as activators; active = well fitted activation curve with a large enough effect; inconclusive = small, poorly fitted or top-dose-only effect, or another doubt; inactive = no such curve, though single readings can be large or run the other way; cell line not stated here;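 also: phosphodiesterase inhibitor Ro 20-1724 added with compounds to block cAMP breakdown; potency is read from the fitted curve at half-maximal effect; nearly all actives have a fitted effect of over 60% in size; about a fifth of the inactives were tested at one dose only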
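Cells stably selected in G418 were plated at 2000/well, grown 16-24 hr, then given compounds in DMSO with the PDE inhibitor […] (300 uM solution added) for 30 min at 37C; cAMP was read by HTRF.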
Sfp inh: qHTS Assay for Inhibitors of Bacillus subtilis Sfp phosphopantetheinyl transferase (PPTase); Potency, µM, inactives show max response, negative = inhibition, usual class: inhibitors; AID 1490, 2009; 3.5% of 310,000 active; 4'-phosphopantetheinyl transferase ffp (Bacillus subtilis), Q9F4F7; Biochemical Sfp PPTase activity, qHTS; active = well fitted inhibition curve with a large enough effect; inconclusive = small, poorly fitted or top-dose-only effect, or another doubt; inactive = no such curve, though single readings can be large or run the other way;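 also: the enzyme is Sfp with the accession as filed and its product quenches rhodamine fluorescence; potency is read from the fitted curve at half-maximal effect; 0% = enzyme reaction without inhibitor and -100% = no enzyme wells; top concentration of the series not given in the record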
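With Hepes-Na pH 7.6 buffer containing 10 mM MgCl2, Sfp (15 nM) modified BHQ-2-YbbR (12.5 uM) using rhodamine-CoA (5 uM). Two reads 30 minutes apart at 525/598 nm yielded each well's rate.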
TRPV1 potentiator: HTS Assay for Compounds that Act as Potentiators of the Vanilloid Receptor 1; TRPV1-expressing cells, Fluo-8 calcium influx, capsaicin EC20 potentiation; host cell line not named in the record; control for the full effect not named in the record; AID 540277, 2011; 0.02% of 320,000 active; potentiation, % at 8.33 µM; Transient receptor potential cation channel subfamily V member 1 (Homo sapiens), Q8NER1; active means potentiation above 80%; inconclusive means 30% to 80%; inactive means below 30%; also: 0% is about no effect
Target sequence (Q8NER1 whole entry, looked up): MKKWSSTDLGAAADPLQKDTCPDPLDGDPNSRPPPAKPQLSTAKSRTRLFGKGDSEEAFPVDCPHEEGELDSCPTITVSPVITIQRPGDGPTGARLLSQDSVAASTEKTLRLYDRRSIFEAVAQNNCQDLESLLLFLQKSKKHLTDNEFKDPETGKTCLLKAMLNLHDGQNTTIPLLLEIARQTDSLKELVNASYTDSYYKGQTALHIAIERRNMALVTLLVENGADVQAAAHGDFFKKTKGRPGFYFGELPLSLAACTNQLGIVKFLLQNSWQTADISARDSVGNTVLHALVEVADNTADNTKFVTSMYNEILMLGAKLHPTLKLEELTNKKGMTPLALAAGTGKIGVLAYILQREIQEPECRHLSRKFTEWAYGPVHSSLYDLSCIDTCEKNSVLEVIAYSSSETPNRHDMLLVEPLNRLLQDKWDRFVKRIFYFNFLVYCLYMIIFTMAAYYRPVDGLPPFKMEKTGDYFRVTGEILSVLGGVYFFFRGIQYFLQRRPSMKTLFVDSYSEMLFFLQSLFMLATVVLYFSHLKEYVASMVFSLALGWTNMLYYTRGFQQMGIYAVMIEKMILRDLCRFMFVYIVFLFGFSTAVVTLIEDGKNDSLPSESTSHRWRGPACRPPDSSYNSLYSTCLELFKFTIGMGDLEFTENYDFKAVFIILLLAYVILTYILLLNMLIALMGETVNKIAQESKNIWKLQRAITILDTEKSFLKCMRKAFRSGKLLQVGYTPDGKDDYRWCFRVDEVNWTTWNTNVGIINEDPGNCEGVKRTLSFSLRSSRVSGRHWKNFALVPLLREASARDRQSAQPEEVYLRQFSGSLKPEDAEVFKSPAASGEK
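TRPV1-expressing cells were cultured overnight at 35.5C and loaded with Fluo-8 calcium dye for 40 to 90 min at room temperature. After a 10 s baseline, compound was added and calcium influx was read kinetically for 3 min (ex 480/em 520 nm).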
An asterisk follows results filed as active; ? = inconclusive; · = no result given; [ ] = remark or other dose.

Each structure is followed by: TRPV1 potentiator, D2 potentiator, Sfp inh, Menin MLL FP FL, gsp agonist, ClpP mod, gsp antagonist
> COc1ccc(C(=O)n2nc(-c3ccco3)nc2SC)cc1OC
  1, -29, ?, 4.5, -6%[15.4 µM], -5.7%, 0%
> CCCOc1ccc(C(C(=O)OCCN(CC)CC)c2ccccc2)cc1 (stereo not given)
  1, -27, -9%, 3.0, 28%, 1.3%, -1%
> O=C(C[C@@H]1C/C=C\CCC(=O)OC[C@@H]2CCCN2C1=O)NCCO
  ·, -12, ·, ·, ·, -2.5%, 9%
> COc1ccc(C(=O)NC(=S)NCc2ccccc2)cc1
  15, -20, -3%, 3.0, -6%, -1.0%, -2%
> COc1ccc(-c2nc3c4c(ncn3n2)-c2ccccc2CC42CCCC2)cc1
  -18, 2, 2%, 5.9, 11%[15.4 µM], -2.1%, 6%
> O=C(O)c1ccc(S(=O)(=O)N2CCC(n3nnc4cc(C(F)(F)F)ccc43)CC2)cc1
  -4, -5, 20%, ·, 6%[15.4 µM], -0.2%, -6%
> Cc1coc2cc3oc(=O)c(CCC(=O)N4CCC(C(=O)O)(c5ccccc5)CC4)c(C)c3cc12
  -9, -11, 7%, 1.8, ·, 5.0%, -9%
> Cc1ccc(NC(=O)CS(=O)CC(=O)Nc2ccc(N3CCOCC3)cc2)cc1Cl (stereo not given)
  5, 2, -9%, 4.3, ?, 0.1%, 5%
> CN(C)N=Nc1ccc(S(=O)(=O)N2CCSC2C(=O)O)cc1 (stereo not given)
  ·, -10, ·, ·, 1%, -2.0%, -5%
> Cc1cc(Br)c(NC(=O)CN2CCCC2)c(Br)c1
  0, -1, 13%, 5.1, 13%[15.4 µM], ·, 5%
> Nc1c(C(=O)NCCc2ccccc2)sc2nc(N3CCOCC3)c3c(c12)CCCC3
  8, 2, 22µM*, 1.5, -16%[15.4 µM], ·, 6%
> CCN1C(=O)CC(NNC(=O)c2ccccc2)C1=O (stereo not given)
  -7, -6, -5%, 0.5, -16%, -0.2%, 5%
> CCOc1ccc(C(=O)CCC(=O)N(CC)CC(=O)Nc2c(F)cccc2F)cc1
  6, -4, ·, ·, 2%, -1.2%, 1%
> CC1CCN(C(=O)CC2C(=O)Nc3c2c(=O)n(C)c(=O)n3Cc2ccccc2)CC1 (stereo not given)
  6, -8, -9%, 3.1, -11%, -5.4%, 2%
> O=[N+]([O-])c1cccnc1NCCc1ccccc1
  4, -4, 4%, -1.8, -36%[inhibitor], ·, 9%
> CSCCC(NC(=O)c1ccccc1Cl)C(=O)N1CCC1 (stereo not given)
  28, 25, ·, ·, -19%, -0.1%, 15%
> COc1ccc(O)c(C(=O)c2cnc3onc(C(C)C)c3c2)c1
  0, 55*, 10%, 0.9, 16%, -6.2%, -6%
> CCCCN1CC(COCc2ccccc2)Oc2cccc(OCc3ccc(OC)cc3)c2S1(=O)=O (stereo not given)
  ·, -2, ·, ·, -6%, -2.4%, ·
> COc1cccc(C(=O)NC2CCN(CC(=O)NCc3ccccc3F)CC2)c1
  21, -2, 7%, -4.6, 13%[15.4 µM], ·, -5%
> CCCCCCOC(=O)C(C#N)c1nc2ccccc2nc1N1CCOCC1 (stereo not given)
  -3, 3, ?, ?, -2%, -0.5%, -2%
> Cc1cc(S(=O)(=O)N2CCCC2)ccc1OCC(=O)Nc1ccccc1
  0, -8, 3%, ·, 1%, -1.4%, -2%
> C=CCNc1nc(NCc2ccco2)nc(OCC)n1
  1, -22, -6%, -1.6, -5%, 0.5%, -4%
> COc1cccc(CNC(=O)COC(=O)c2c(NC(C)=O)sc(C)c2C)c1
  ·, -5, ·, ·, -8%[15.4 µM], -1.6%, -8%
> COc1ccc(N2CCN(Cc3cc(=O)oc4cc5c(cc34)CCCC5)CC2)cc1
  -12, -2, 1%, 3.2, -22%, -4.5%, -14%
> CC1CCc2sc(C(=O)NN=C3CCC(c4ccccc4)CC3)cc2C1 (stereo not given)
  7, -10, 7%, -0.2, -26%, -0.8%, 10%
> CCOC(=O)N1CCN(C(=O)c2cc(S(=O)(=O)N3CCc4ccccc43)ccc2OC)CC1
  ?, -8, ·, ·, 13%[15.4 µM], 0.3%, 1%
> CCN(CC(=O)Nc1ccccc1-c1ccccc1)Cc1nc2ccccc2c(=O)[nH]1
  -7, 1, -12%, 7.1, 18%, 0.1%, -2%
> Cc1cc(-c2nnc3n2N=C(c2ccccc2Br)CS3)n[nH]1
  1, -2, ?, 2.2, -5%[15.4 µM], ·, -9%
> O=C(c1ccc(N2CCOCC2)cc1)N1CCCC(Nc2ccccc2)C1 (stereo not given)
  1, -16, 14%, 7.4, 28%, -1.5%, -15%
> OC(CNCC1CCCCC1)COc1ccccc1 (stereo not given)
  12, -22, 13%, -0.6, -1%[15.4 µM], ·, 13%
> O=C1N[C@@H](Cc2ccccc2)C(=O)N2[C@@H]3N(S(=O)(=O)c4ccc(F)cc4)c4ccccc4[C@]3(Br)C[C@@H]12
  ·, -3, ·, ·, 5%, -2.6%, -21%
> COCCNc1nnc(SCC(=O)Nc2cc(C)on2)s1
  -3, 6, ·, ·, ?, 0.8%, 7%
> CC(C)c1ccc(NC(=O)Cn2nnc(C(=O)NCc3ccco3)c2N)cc1
  -8, -5, 10%, 1.0, 19%, 0.2%, 2%
> COC(=O)[C@]1(C)N[C@H](CN(C)C(=O)C2CCCCC2)[C@@H]2C(=O)N(Cc3ccccc3)C(=O)[C@@H]21
  ·, -3, ·, ·, ·, 0.9%, -1%
> CS(=O)(=O)c1ccc(Cl)c(NC(=O)C2CC(=O)N(c3ccc4c(c3)OCCO4)C2)c1 (stereo not given)
  23, -41, 6%, ·, -8%[15.4 µM], 1.2%, -20%
> COc1cc(OC)c(NC(=O)CN(C)S(=O)(=O)c2ccc(-c3ccc(=O)[nH]n3)s2)cc1Cl
  -26, -3, -18%, ·, -15%, -5.4%, -14%
> O=S(=O)(CCN1CCOCC1)c1ccccc1
  14, -7, 10%, -1.7, ?, -0.2%, 3%
> C/C(=N\Nc1cccc(C(=O)O)c1)c1ccc2c(c1)Nc1ccccc1S2
  -1, 12, -21%, 8.5, -8%[15.4 µM], ·, -14%
> N#Cc1cc2c([nH]c1=S)CCCC2
  2, -28, 11µM*, 6.1, 23%, -7.9%, 8%
> CC(NC(=O)/C(=C/c1ccc(OC(F)F)cc1)c1ccccc1)c1ccccc1 (stereo not given)
  -4, -14, 14%, 1.4, -44%[inhibitor], -7.2%, -16%
> Cc1c(NC(=O)CSc2nnnn2C)c(=O)n(-c2ccccc2)n1C
  -2, -11, 24%, 1.8, -33%[inhibitor], -0.9%, 9%
> CC(C)N1C(=O)S/C(=C/c2ccc3c(c2)n(C)c(=O)n3C)C1=O
  -9, -1, 12%, 0.2, ?, 2.0%, 5%
> O=C(c1ccccn1)N1CCCC(N2CCN(c3cccc(C(F)(F)F)c3)CC2)C1 (stereo not given)
  -4, -12, 4%, -0.8, ?, ·, -2%
> N#C/C(=C\c1ccccc1O)C(=O)Nc1cccnc1
  27, 4, 5%, 13, 15%[15.4 µM], ·, 6%
> Cc1cc(C)c(C#N)c(Nc2ccccc2Cl)n1
  -4, -2, 5%, -0.3, -8%, ?, 2%
> CC1CC(=O)C2=C(C1)Nc1ccccc1SC2c1ccc(F)cc1 (stereo not given)
  -21, 3, 1%, ·, -4%, 1.7%, -18%
> Cc1ccc2c(c1)N(CC(=O)NCc1cccs1)C(=O)C(C)O2 (stereo not given)
  17, -4, 10%, 0.3, -21%, -2.3%, 4%
> CC1=C(C(=O)N2CCOCC2)CC(CC(=O)NCc2cccs2)C(=O)N1Cc1ccc(C(C)(C)C)cc1 (stereo not given)
  ·, 5, ·, ·, -70%[inhibitor], 1.2%, ·
> Cc1cccc(-c2cc(=O)c(C(=O)O)cn2-c2ccc(F)cc2F)c1
  30, -8, 1%, 5.2, ·, -2.3%, -10%
> FC(F)(F)c1ccc(-n2cn[nH]c2=S)cc1
  5, -12, -3%, 2.0, -3%[15.4 µM], ·, -9%
> O=C(O)CCSc1ccc([N+](=O)[O-])cc1[N+](=O)[O-]
  8, 2, 45µM*, 0.3, -225%[inhibitor], ·, 0%
> CCOC(=O)C1CCCN(C(=O)Cc2ccc(OC)c(OC)c2)C1 (stereo not given)
  -4, -3, 13%, 1.1, -35%, -1.4%, -1%
> COc1ccccc1N1CCN(C(=O)c2cc(C(=O)N3CCN(c4ccccc4OC)CC3)cc([N+](=O)[O-])c2)CC1
  -2, 1, 12%, -4.3, -2%, 1.5%, 1%
> O=C(c1ccc2c(Cl)c3c(nc2c1)CCCC3)N1CCC(N2CCCCC2)CC1
  10, -10, -2%, -1.5, 2%, 0.9%, 7%
> Cc1cccc2nc(Cn3c(=O)n(CCCC(=O)NCc4ccco4)c(=O)c4ccccc43)cc(=O)n12
  5, 2, ?, 0.2, 17%[15.4 µM], -7.9%, -7%
> O=C(OCn1nnc2ccccc2c1=O)c1cn(-c2ccccc2)nc1-c1cccnc1
  -15, -11, -28%, 9.5, ?, 0.5%, -19%

Screening data (PubChem)
